Assay outcomes deposited in PubChem by National Center for Advancing Translational Sciences (NCATS).
PI4K2A inh = PI4K2A (human) kinase inhibition; 420,000 compounds, 0.13% hits; purified PI4K2A, ADP-Glo luminescence, 1 h; active compounds read low; Q9BTU6; AID 1346378; activity change, negative = inhibition, % at 76.9 µM; in the data active = activity change below about -50%; inconclusive = mostly about -30% to -49%;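 also: -100% = wells without enzyme as full effect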
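In this quantitative HTS, ADP production by PI4K2A was quantified luminescently after 1 h at ambient temperature; 100 microM adenosine served as plate-quality control.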
Pin1 inh = blocks the human prolyl isomerase Pin1; Q13526; Pin1 FP peptide displacement, HiFluor488, 10 min; Potency, µM (titrated, usually from 115 µM), for inactives: top-dose activity, negative = inhibition, actives largely listed as inhibitors; 390,000 compounds, 0.009% hits; AID 504891; active = well fitted inhibition curve with a large enough effect in the polarisation, with a control signal flat, not every such curve was filed as active; inconclusive = small, poorly fitted or top-dose-only effect, or effect the other way, or a change in a side signal; inactive = no such curve, though single readings can be large or run the other way; the % refers to the polarisation; also: potency is read from the fitted curve at half-maximal effect; % is scaled to controls: 0 for no effect and ±100 for the full control effect
G9a block = blocks human histone lysine methyltransferase G9a; Q96KQ7; G9a H3K9 monomethylation, AlphaScreen, 2 h; Potency, µM (doses to about 102 µM), for the others: at the highest dose activity, negative = inhibition, actives largely listed as inhibitors; 350,000 compounds, 8.8% hits; AID 504332; also: potency is read from the fitted curve at half-maximal effect; % is scaled to controls: 0 for no effect and ±100 for the full control effect; nearly all actives have a fitted effect of over 75% in size
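Using a bead-based AlphaScreen, monomethylated H3K9 product from 2 h room-temperature reactions (G9a 20 nM, peptide 500 nM, SAM 20 uM) was detected with 0.5 ug/mL rabbit anti-H3K9me1 antibody.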
Tb PGK inh = T. brucei PGK inhibition; PGK/GAPDH coupled, Kinase-Glo luminescence, 60 min; Potency, µM (highest dose often 57.5 µM), for the others: top-dose activity change, negative = inhibition, actives largely listed as inhibitors; 380,000 compounds, 0.043% hits; AID 602233; also: potency is read from the fitted curve at half-maximal effect; % is scaled to controls: 0 for no effect and ±100 for the full control effect; nearly all actives have a fitted effect of over 60% in size
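Luminescent ATP detection (Kinase-Glo Plus) follows a 60-minute room-temperature incubation, with wells lacking PGK as controls. Buffer: 100 mM TEA (pH 7.6), 5 mM MgCl2, 0.01% Tween-20. Coupling enzyme GAPDH (100 nM final) supplies unstable 1,3-BPG in-well.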
Pol eta inh = blocks human DNA polymerase eta activity | recombinant Pol eta, fluorescent DNA replication assay | 390,000 compounds, 1.2% hits | Q9Y253 | Potency, µM (top dose mostly 114 µM), inactives show at the top dose activity change, negative = inhibition, usual class: inhibitors; also: potency is read from the fitted curve at half-maximal effect; % is scaled to controls: 0 for no effect and ±100 for the full control effect
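Pol eta (10 nM) was preincubated with compounds for 15 min at room temperature, after which fluorescent replication substrate (50 nM final) was added to start the reaction. Fluorescence was read kinetically at 0 and 10 min.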
GLS inhibitor = inhibitors of human glutaminase (GLS) | O94925 | GLS enzymatic activity, qHTS titration | Potency, µM (titrated, usually from 45.5 µM), for inactives: at the highest dose activity change, negative = inhibition, most hits filed as inhibitors | 410,000 compounds, 0.21% hits; also: potency is read from the fitted curve at half-maximal effect; % is scaled to controls: 0 for no effect and ±100 for the full control effect
Target sequence (O94925 whole entry, looked up): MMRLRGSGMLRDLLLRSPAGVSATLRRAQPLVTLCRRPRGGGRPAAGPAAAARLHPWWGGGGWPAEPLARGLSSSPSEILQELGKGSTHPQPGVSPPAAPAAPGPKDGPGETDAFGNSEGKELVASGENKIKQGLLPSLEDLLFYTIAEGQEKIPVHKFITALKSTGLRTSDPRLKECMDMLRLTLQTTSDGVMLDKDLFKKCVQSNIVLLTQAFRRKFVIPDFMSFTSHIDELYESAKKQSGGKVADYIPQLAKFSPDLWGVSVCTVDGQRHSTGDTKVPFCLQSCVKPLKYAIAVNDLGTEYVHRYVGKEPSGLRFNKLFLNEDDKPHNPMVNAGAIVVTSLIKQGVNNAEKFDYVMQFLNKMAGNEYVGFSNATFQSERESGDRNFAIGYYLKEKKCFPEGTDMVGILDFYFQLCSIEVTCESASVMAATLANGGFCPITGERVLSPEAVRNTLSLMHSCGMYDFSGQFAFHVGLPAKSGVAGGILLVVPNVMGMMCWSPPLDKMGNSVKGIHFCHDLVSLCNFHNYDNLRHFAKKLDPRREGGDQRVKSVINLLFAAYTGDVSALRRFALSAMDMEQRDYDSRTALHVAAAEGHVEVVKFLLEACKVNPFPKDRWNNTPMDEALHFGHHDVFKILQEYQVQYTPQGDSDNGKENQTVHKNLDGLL
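Glutamate formation by hKGA was monitored fluorometrically using coupled glutamate oxidase, HRP and Amplex Red. Substrate was added as 1 mM L-glutamine solution; incubation was 30 min at RT after an initial read.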
HP1b binding inh = inhibitors of HP1-beta chromodomain binding to methylated histone tails | P83916 | AlphaScreen HP1-beta / biotin-H3K9me3 peptide binding | Potency, µM (series often up to 114 µM), inactives show at the top dose activity change, negative = inhibition, usual class: inhibitors | 390,000 compounds, 0.56% hits | AID 540317; also: potency is read from the fitted curve at half-maximal effect; nearly all actives have a fitted effect of over 70% in size; inactives centre near 23
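HP1-beta protein (50 nM final) preincubated 30 min at room temperature with biotinylated H3(1-18)K9me3 peptide (50 nM) in PBS pH 7.4, 0.01% Tween-20, then compound added for 30 min. AlphaScreen streptavidin donor/nickel chelate acceptor beads (10 ug/mL final), 30 min dark, luminescence read.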
Starred values were filed as active, the others as inactive; i = inactive; ? = inconclusive; nt = not tested or not shown; [ ] = another dose, or the depositor's remark. Unless noted, calls follow the shape of the dose curve; as a rule, active = well fitted curve in the direction sought with a large enough effect; inconclusive = small, poorly fitted or top-dose-only effect, or another doubt; inactive = no such curve, though single readings can be large; an effect the other way counts as inactive or inconclusive. Only part of the results is shown; count on the stated rates, not on these rows.

item	HP1b binding inh	Tb PGK inh	Pin1 inh	PI4K2A inh	GLS inhibitor	G9a block	Pol eta inh	smiles
1	23%	0%	-7%	0	-3%	-7%	-2%	O=C(NC1(C(F)(F)F)C(=O)Nc2c1c(=O)[nH]c(=O)n2-c1ccccc1)c1cccnc1 (stereo not drawn)
2	68%[activator]	-1%	-1%	-6	11%	3%	-15%	O=C(c1ccc2c(c1)OCO2)N1CCN=C1SCc1ccccc1
3	17%	-7%	49%[activator]	-1	3%	?	-14%	Cc1cccc(NC(=S)NCc2ccc3c(c2)OCO3)c1C
4	18%	-3%	0%	-2	7%	?	-10%	O=C(Nc1nnc(-c2ccccc2)o1)c1cccc(N2C(=O)CCC2=O)c1
5	-7%	-8%	-11%	1	-4%	?	?	Cc1oc(-c2ccc(-c3ccccc3)cc2)nc1CN(C)C1CCOC1 (stereo not drawn)
6	44%[activator]	-6%	0%	-4	0%	?	-11%	CN1CCN(c2ccc(C(=O)NC3CCCCC3)cc2[N+](=O)[O-])CC1
7	18%	1%	-9%	-7	14%	0%	0%	CCn1c(SCC(=O)NCc2ccco2)nnc1C1CCCC1
8	-36%	nt	16%	-2	3%	-96%[59 µM]	-4%	O=C(c1ccco1)N1CCN(c2nc(C3CC3)nc3sc4c(c23)CCCC4)CC1
9	34%	-49%	?	-8	-31%	?	20µM*	CCCOc1ccc(C(=O)N/N=C/c2ccc(-c3ccc(S(=O)(=O)Nc4ncccn4)cc3)o2)cc1
10	33%	-1%	4%	6	6%	0%	-20%	COC(=O)C1C(O)=C(C=Nc2ccccc2)C(=O)CC1(C)C (stereo not drawn)
11	?	-7%	-9%	13	3%	11µM*	1%	COc1cccc(CN2CCN(c3ncccn3)CC2)c1
12	9%	-4%	nt	-13	?	45µM*	?	O=c1cc(-c2c(O)c3ccccc3n(Cc3ccccc3)c2=O)[nH][nH]1

The list goes on (5 carried over from the part before).
item	HP1b binding inh	Tb PGK inh	Pin1 inh	PI4K2A inh	GLS inhibitor	G9a block	Pol eta inh	smiles
8	-36%	nt	16%	-2	3%	-96%[59 µM]	-4%	O=C(c1ccco1)N1CCN(c2nc(C3CC3)nc3sc4c(c23)CCCC4)CC1
9	34%	-49%	?	-8	-31%	?	20µM*	CCCOc1ccc(C(=O)N/N=C/c2ccc(-c3ccc(S(=O)(=O)Nc4ncccn4)cc3)o2)cc1
10	33%	-1%	4%	6	6%	0%	-20%	COC(=O)C1C(O)=C(C=Nc2ccccc2)C(=O)CC1(C)C (stereo not drawn)
11	?	-7%	-9%	13	3%	11µM*	1%	COc1cccc(CN2CCN(c3ncccn3)CC2)c1
12	9%	-4%	nt	-13	?	45µM*	?	O=c1cc(-c2c(O)c3ccccc3n(Cc3ccccc3)c2=O)[nH][nH]1
13	-7%	-9%	-2%	-12	-6%	32µM*	-14%	Cc1nc(N2CCN(C(=O)c3ccco3)CC2)c2c3c(sc2n1)CCC3
14	40%[activator]	-3%	-3%	0	-3%	?	-9%	CN1C(=O)CS(=O)c2ccc(C(=O)NC3CC3)cc21 (stereo not drawn)
15	?	-5%	-2%	1	2%	?	-11%	COc1cc(O)ccc1-c1nc2cc(C)ccn2c1Nc1ccccc1C
16	-42%	1%	?	6	20%	?	-26%	CCCCn1c(C)cc2cc(O)ccc21
17	26%	2%	-3%	-4	10%	?	-23%	CC1CCN(CC(=O)Nc2ccc3c(c2)OCO3)CC1
18	nt	nt	nt	nt	nt	13%[12.7 µM]	nt	Oc1ccc(COCc2ccc(F)cc2)c2cccnc12
19	?	-8%	6%	1	nt	1%[0.501 µM]	-5%	CC(/C=N/n1c(COc2ccccc2)n[nH]c1=S)=C\c1ccccc1
20	68%[activator]	2%	-2%	-19	27%	-26%[59 µM]	-11%	C=CCN(C(=O)Nc1ccc2oc(C)nc2c1)c1ccccc1
21	15%	nt	-4%	-2	17%	3%[59 µM]	5%	CC1CCN(C(=O)CSc2nnc(-c3ccc(S(=O)(=O)N4CCOCC4)cc3)n2C)CC1
22	27%	-2%	-4%	-7	-4%	?	-15%	Cc1ccc(-c2nc(CN(C)C3CCOC3)c(C)o2)s1 (stereo not drawn)
23	16%	-7%	?	-6	58%[activator]	?	4%	CC(=O)Nc1c(O)nc(SCC(=O)Nc2sc3c(c2C#N)CCCCCC3)[nH]c1=O
24	0%	i	4%	-8	-1%	56%[activator][59 µM]	-11%	O=C(Oc1ccc(Cl)c2cccnc12)c1cccc([N+](=O)[O-])c1

Entries of single compounds, looked up by structure. Order of values: HP1b binding inh | Tb PGK inh | Pin1 inh | PI4K2A inh | GLS inhibitor | G9a block | Pol eta inh
Profile of Cc1ccc(-c2nc(CN(C)C3CCOC3)c(C)o2)s1 (stereo not drawn) = 27% | -2% | -4% | -7 | -4% | ? | -15%
Profile of CC(=O)Nc1c(O)nc(SCC(=O)Nc2sc3c(c2C#N)CCCCCC3)[nH]c1=O = 16% | -7% | ? | -6 | 58%[activator] | ? | 4%
Profile of CC(/C=N/n1c(COc2ccccc2)n[nH]c1=S)=C\c1ccccc1 = ? | -8% | 6% | 1 | nt | 1%[0.501 µM] | -5%

Structural class, the entries above containing an aryl methoxy group.
item	HP1b binding inh	Tb PGK inh	Pin1 inh	PI4K2A inh	GLS inhibitor	G9a block	Pol eta inh	smiles
11	?	-7%	-9%	13	3%	11µM*	1%	COc1cccc(CN2CCN(c3ncccn3)CC2)c1
15	?	-5%	-2%	1	2%	?	-11%	COc1cc(O)ccc1-c1nc2cc(C)ccn2c1Nc1ccccc1C
